# NS1 inh: qHTS Assay for Inhibitors of Influenza NS1 Protein Function; S. cerevisiae slowed by influenza A NS1, growth recovery by OD600; Potency, µM (top dose mostly 46.1 µM), without a hit: top-dose activity, positive = more growth; 270,000 tested, 0.4% active; AID 2326, 2010; also: actives are rising curves; nearly all actives have a fitted effect of over 50% in size
#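 S. cerevisiae expressing influenza A NS1, grown in glucose, washed, then diluted 1:100 into pH 6.0 -URA galactose medium with 23 nl compound. Growth recovery read as OD600; NS1-free strain serves as control.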
# SARS PLpro yeast: qHTS of Yeast-based Assay for SARS-CoV PLP; S. cerevisiae expressing SARS-CoV PLpro, growth rescue; control for the full effect not named in the record; Potency, µM (top dose mostly 32.9 µM), for the others: top-dose activity, positive = growth rescue; 330,000 tested, 0.19% active; AID 485353, 2010; also: 0% is about no effect; nearly all actives have a fitted effect of over 55% in size; growth read by luminescence after 48 h
# Cruzain noTriton: qHTS Assay for Promiscuous and Specific Inhibitors of Cruzain (without detergent); Cruzipain (Trypanosoma cruzi), P25779; purified cruzain, Z-FR-AMC fluorescence, no detergent; Potency, µM, without a hit: max response, negative = inhibition, usual class: inhibitors; 200,000 tested, 2.3% active; AID 1476, 2009; active = well fitted curve in the direction sought with a large enough effect; inconclusive = small, poorly fitted or top-dose-only effect, or another doubt; inactive = no such curve, though single readings can be large; an effect the other way counts as inactive or inconclusive;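 also: plate controls were enzyme without inhibitor for no effect and buffer without enzyme for full effect; nearly all actives have a fitted effect of over 40% in size; top concentration of the series not given in the record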
# Target sequence (P25779 123-467 limits assumed): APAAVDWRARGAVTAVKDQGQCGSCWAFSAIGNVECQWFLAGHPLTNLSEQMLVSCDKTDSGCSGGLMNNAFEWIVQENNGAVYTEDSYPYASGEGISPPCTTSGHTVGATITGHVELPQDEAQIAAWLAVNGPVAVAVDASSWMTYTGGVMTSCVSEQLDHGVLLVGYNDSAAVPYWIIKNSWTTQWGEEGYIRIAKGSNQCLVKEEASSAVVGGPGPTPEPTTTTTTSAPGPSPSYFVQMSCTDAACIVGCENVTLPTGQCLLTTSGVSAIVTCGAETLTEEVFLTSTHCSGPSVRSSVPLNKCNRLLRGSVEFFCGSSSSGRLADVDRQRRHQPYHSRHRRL
#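 Detergent-free condition (0.00005% Triton X-100) in acetate buffer pH 5.5 with DTT. 1.5 nM enzyme and compound were pre-mixed 15 min, then 2 uM Z-FR-AMC substrate added; reaction progress from fluorescence change between first and third reads (60 s).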
# RE007 growth inh: qHTS Assay for Inhibitors of the HIV-1 protein Vpr | S. pombe RE007 Vpr strain, BacTiter-Glo ATP luminescence, 24 h; control for the full effect not named in the record | Potency, µM (doses to about 92.2 µM), for inactives: at the highest dose activity change, negative = less growth | 360,000 tested, 0.21% active; active = well fitted falling curve with a large enough effect; inconclusive = small, poorly fitted or top-dose-only effect; inactive = no such curve, though single readings can be large or run the other way;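 also: % is scaled to controls: 0 for no effect and ±100 for the full control effect; nearly all actives have a fitted effect of over 50% in size; the assay follows cell death caused by Vpr and the record does not say whether a fall means rescue or toxicity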
#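 Fission yeast RE007 carrying one integrated HIV-1 vpr copy, seeded at OD 0.01 in PMG+AL medium with 23 nL pinned compound. Grown 24 h at 30 degrees; viability read by BacTiter-Glo luminescence after 5 min.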
# 2A StopGo: High Throughput Screening for Foot and Mouth Disease Virus Antivirals; Potency, µM (doses to about 57.9 µM), inactives show at the highest dose signal change, negative = less light; AID 1159524, 2015; 410,000 tested, 1.2% active; human cells with a luciferase reporter of 2A StopGo recoding; control for the full effect not named in the record; active = well fitted falling curve with a large enough effect; inconclusive = small, poorly fitted or top-dose-only effect; inactive = no such curve, though single readings can be large or run the other way; tested in HEK293T cells; also: % is scaled to controls: 0 for no effect and ±100 for the full control effect; nearly all actives have a fitted effect of over 45% in size; luciferase light after 4 h
# Cruzain inh Det: qHTS Assay for Promiscuous and Specific Inhibitors of Cruzain (with detergent). Cruzipain (Trypanosoma cruzi), P25779. 200,000 tested, 0.43% active. Potency, µM, for inactives: max response, negative = inhibition, usual class: inhibitors. purified cruzain, Z-FR-AMC fluorescence, 0.01% Triton; active = well fitted curve in the direction sought with a large enough effect; inconclusive = small, poorly fitted or top-dose-only effect, or another doubt; inactive = no such curve, though single readings can be large; an effect the other way counts as inactive or inconclusive;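 also: plate controls were neutral wells for no effect and buffer without enzyme for full effect; nearly all actives have a fitted effect of over 40% in size; top concentration of the series not given in the record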
#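 Enzyme 1.5 nM, Z-FR-AMC 2 uM, NaOAc 100 mM pH 5.5, DTT 5 mM, Triton X-100 0.01%; 15 min RT compound preincubation; kinetic ex360/em450, 60 s delta.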
# MARV entry inh: qHTS for inhibitors of binding or entry into cells for Marburg Virus; Marburg virus pseudotyped entry inhibition, cell reporter; control for the full effect not named in the record; about a third of the inactives were read at about 46 µM; Potency, µM (titrated, usually from 37.8 µM), without a hit: top-dose activity change, negative = inhibition, most hits filed as inhibitors; 300,000 tested, 1.8% active; AID 540276, 2011; active = well fitted inhibition curve with a large enough effect; inconclusive = small, poorly fitted or top-dose-only effect, or effect the other way; inactive = flat fitted curve, though single readings scatter; tested in HEK293 cells; about a fifth of its hits are not listed in these tables; also: % is scaled to controls: 0 for no effect and ±100 for the full control effect; luciferase read-out
# Lassa entry inh: qHTS for Inhibitors of binding or entry into cells for Lassa Virus | Potency, µM (doses to about 37.9 µM), for the others: top-dose activity change, negative = inhibition, most hits filed as inhibitors | Lassa virus pseudotype entry inhibition, cell reporter; control for the full effect not named in the record | 300,000 tested, 1.2% active; active means well fitted inhibition curve with a large enough effect; inconclusive means small, poorly fitted or top-dose-only effect, or effect the other way; inactive means flat fitted curve, though single readings scatter; tested in HEK293 cells; also: % is scaled to controls: 0 for no effect and ±100 for the full control effect; nearly all actives have a fitted effect of over 50% in size; luciferase read-out
# Numbers without * were called inactive; ? = inconclusive; / = not tested or not shown; & = joins results of further samples; [ ] = remark or other dose. Unless noted, calls follow the shape of the dose curve; as a rule, active means well fitted rising curve with a large enough effect; inconclusive means small, poorly fitted or top-dose-only effect; inactive means no such curve, though single readings can be large or run the other way. Potency is read from the fitted curve at half-maximal effect. Compounds were not picked by outcome (roughly 4.6% active in at least one column).
SMILES	MARV entry inh	NS1 inh	RE007 growth inh	Cruzain noTriton	SARS PLpro yeast	2A StopGo	Lassa entry inh	Cruzain inh Det
CC(OC(=O)Cc1ccc(F)cc1)C(=O)N1CCc2ccccc21 (stereo not given)	9%	/	4%	/	-5%	16%	-2%	/
COc1ccc(/C=N/NC(=S)Nc2cccc(C(=O)O)c2)cc1	?	/	32%	/	-1%	-1%	?	/
CC(C)Oc1ccc(/C=N/NC(=O)c2ccc(N(Cc3ccccc3)S(C)(=O)=O)cc2)cc1	?	7%	0%	8%	19%	-23%	-6%	-11%
O=c1[nH]c2ccc(NCc3ccc(-c4ccc(Cl)cc4)o3)cc2[nH]1	1%[46.1 µM]	/	/	?	/	?	-3%[46.1 µM]	7.6%
CC(C)C[C@H](NC(=O)c1ccc(OC2CCN(C(=O)C3CC3)CC2)cc1)C(N)=O	-20%[46.1 µM]	3%	-13%	/	1%	-12%	-17%[46.1 µM]	/
O=C(COC(=O)c1ncc(Cl)c(Cl)c1Cl)NC1CCCCCC1	-3%	/	5%	/	3%	0%	26%	/
O=C(Cc1cccc2ccccc12)Nc1ccc(O)cc1C(=O)O	0%	9%	-6%	/	1%	-2%	3%	/
Cc1ccc2c(c1)C1CC(C)(O2)N(c2cccc(C(=O)NC3CCN(Cc4ccccc4)CC3)c2)C(=O)N1 (stereo not given)	?	-6%	2%	/	-2%	-16%	?	/
CCC1CCCCN1CCCNC(=O)c1nn(C)c2c1CS(=O)(=O)c1ccccc1-2 (stereo not given)	/	-9%	-3%	/	-4%	-5%	/	/
O=C(Nc1ccc(S(=O)(=O)N2CCOCC2)cc1)c1ccc([N+](=O)[O-])s1	-6%[46.1 µM]	/	12%	/	-6%	-13%	?	/
O=C(Cn1cccc1C(=O)c1ccccc1)NCc1ccc(F)cc1	4%&4%[46.1 µM]	-2%	-2%	-1%	-2%	2%&-2%	12%[46.1 µM]	-4.9%
CCCn1nnnc1NCc1ccc(F)cc1	/	3%	0%	/	-1%	6%	/	/
CO/N=C(\C(=O)N[C@@H]1C(=O)N2C(C(=O)O)=C(COC(N)=O)CS[C@H]12)c1ccco1	-9%	0%	11%[18.4 µM]	-3%	-11%	-19%	-14%	-2.6%
CC(=O)Nc1cc2c(cc1NC(=O)Cn1nnc(-c3ccc(C)o3)n1)OCCO2	-5%[14.2 µM]	-4%	2%	/	1%	-7%	-1%	/
O=C1C=C(c2ccccc2)C(O)(c2ccccc2)C1 (stereo not given)	8%	0%	-3%	0%	7%	/	1%	0.9%
CC(=O)N1c2ccc(S(=O)(=O)N3CCC(C(=O)Nc4ccc(C)cn4)CC3)cc2CC1C (stereo not given)	/	-21%	5%	/	-5%	?	/	/
COc1cc(C(=O)n2nc(C)c(Sc3ccc(Cl)cc3)c2C)cc(OC)c1OC	2%[46.1 µM]	/	/	-1%	/	-29%	-1%[46.1 µM]	-1.6%
Cc1ccccc1OCC(=O)OC(C(=O)c1ccccc1)c1ccccc1 (stereo not given)	6%	2%	-1%	-6%	-19%	-7%	16%	-8.1%
CN(C)c1ccc(NC(=O)CSc2nc(N)c(C(=O)Nc3ccc(N(C)C)cc3)s2)cc1	?	-28%	-6%	?	-1%	?	?	-2.1%
O=C(O)CC(c1ccc(Br)cc1)N1Cc2ccccc2C1=O (stereo not given)	-1%[46.1 µM]	-1%	2%	/	1%	-15%	1%[46.1 µM]	/
Cc1ccc(-c2nnn(CC(=O)N(CCN3CCOCC3)C(C(=O)NC(C)(C)C)c3ccco3)n2)cc1 (stereo not given)	-15%[46.1 µM]	-2%	4%	/	0%	-1%	15%[46.1 µM]	/
O=C(O)CCCN1C(=O)C2C3C=CC(C2C1=O)C1C(=O)N(CCCC(=O)O)C(=O)C31 (stereo not given)	0%	8%	-5%	/	2%	-9%	-14%	/
CCCCSc1nnc2c(n1)OC=Nc1ccccc1-2	/	-52%	-24%	/	-1%	26%	/	/
Cc1nc(N2CCN(c3ccccn3)CC2)c2c(C)c(C(=O)Nc3ccc(Br)cc3C)sc2n1	/	-2%	-8%	/	-19%	-12%	/	/
O=c1cc(N2CCc3ccccc3C2)[nH]c(=O)n1-c1ccccc1Cl	/	?	3%	1%	3%	-19%	/	-1.4%
CCc1ccc(NC2=NCCCS2)cc1	-2%[46.1 µM]	-4%	-30%	/	-3%	22%	?	/
O=C(NCc1cccnc1)C1c2ccccc2C(=O)N1Cc1ccco1 (stereo not given)	14%	-10%	9%	-8%	1%	32%[activator]	16%	0.5%
CCN(CC)C(=O)Nc1c(C)n(C)n(-c2ccccc2)c1=O	-7%	6%	9%	-3%	13%	-22%	1%	1.1%
Cc1ccc(-n2ncc(C(=O)NCc3ccc4c(c3)OCO4)c2NC(=O)c2ccco2)cc1C	-1%&-21%	-6%	10%	-3%	1%	54%[activator]	-23%	-5.7%
COc1ccc(C(=O)Nc2ccc(S(=O)(=O)Nc3nccnc3OC)cc2)cc1OC	4%	2%	5%	-5%	1%	9%	-15%	4.6%

# Two entries from above, as labelled records:
Cc1ccc(-n2ncc(C(=O)NCc3ccc4c(c3)OCO4)c2NC(=O)c2ccco2)cc1C
  MARV entry inh = -1%&-21%
  NS1 inh = -6%
  RE007 growth inh = 10%
  Cruzain noTriton = -3%
  SARS PLpro yeast = 1%
  2A StopGo = 54%[activator]
  Lassa entry inh = -23%
  Cruzain inh Det = -5.7%

COc1ccc(C(=O)Nc2ccc(S(=O)(=O)Nc3nccnc3OC)cc2)cc1OC
  MARV entry inh = 4%
  NS1 inh = 2%
  RE007 growth inh = 5%
  Cruzain noTriton = -5%
  SARS PLpro yeast = 1%
  2A StopGo = 9%
  Lassa entry inh = -15%
  Cruzain inh Det = 4.6%

# More structures
SMILES	MARV entry inh	NS1 inh	RE007 growth inh	Cruzain noTriton	SARS PLpro yeast	2A StopGo	Lassa entry inh	Cruzain inh Det
O=C(O)c1cc(S(=O)(=O)Nc2cccc3ccccc23)c(Cl)cc1Cl	2%[46.1 µM]	18%	-9%	/	16%	7%	?	/
Cc1occc1C(=O)NC1CCCN(Cc2ccc(CC(C)C)cc2)C1 (stereo not given)	/	-7%	8%	/	-6%	-21%	/	/
COc1ccc(-n2nc(C(=O)NCC(=O)N3CCC(C)CC3)c3ccccc3c2=O)cc1Cl	?	12%	-5%	/	-2%	0%	?	/
NC(=O)NC(CC(=O)Nc1cccnc1)c1cccc(Br)c1 (stereo not given)	9%[46.1 µM]	1%	0%	/	0%	6%	22%	/
COc1ccc(-c2cc(C(=O)NCCc3ccccc3)c3c(-c4ccccc4)[nH]nc3n2)cc1	/	/	/	-9%	/	29%	?	-0.3%
Cc1ccc(NC(=O)Cn2c(=O)oc3cc(S(=O)(=O)NCc4ccccc4)ccc32)cc1	20%[46.1 µM]	/	/	1%	/	15%	/	-4.3%
C=CCOn1c(=O)c(=O)n(OCc2ccccc2)c2ccccc21	8%	-33%	-5%	-2%	10%	4%	4%	0.9%
Cc1c(C(=O)O)[nH]c2c1C(=O)CC(c1ccccc1)C2 (stereo not given)	2%	3%	-7%	-10%	4%	-19%	7%	6.2%
CCO[C@@H]1OC(C(=O)O)=C[C@H](c2coc3ccccc3c2=O)[C@H]1CCCO	/	3%	-10%	/	-1%	-16%	/	/
CCN(Cc1cnn(C)c1)C(=O)c1ccc2nc(Cc3cccc(Cl)c3)oc2c1	?	-2%	7%	/	-1%	-2%	3%[46.1 µM]	/
COCCN1C=C(C(=O)OC)C(c2ccc(OC)c(OC)c2)C(C(=O)OC)=C1	16%	-10%	7%	6%	2%	-8%	-24%	-6.9%
O=C(Nc1ccc(NC(=O)C2CC2)cn1)c1ccccc1	?	-6%	-16%	/	-7%	-19%	5.6µM*	/
COc1cc(NC(=O)c2cc(S(=O)(=O)N3CCCCC3)ccc2N2CCOCC2)cc(OC)c1	2%[46.1 µM]	/	2%	/	9%	?	-23%	/
CC(=O)c1cccc(NC(=O)CC2S/C(=N/N=C3CCCCCC3)NC2=O)c1 (stereo not given)	1%[46.1 µM]	17%	-6%	/	-11%	-2%	-6%	/
O=C(C1CCN(S(=O)(=O)c2cnc[nH]2)CC1)N1CCN(c2ncccn2)CC1	-5%	10%	-19%	-3%	1%	-13%	?	3.2%
O=C(NCCNc1ccc([N+](=O)[O-])cc1C(F)(F)F)c1ccccc1F	?	-70%	-4%	-1%	4%	-21%	-28%	-5.1%
CCn1c(N2CCN(CC(=O)Nc3cccc(C)c3C)CC2)nc2ccccc21	-13%	-52%	5%	-15%	-7%	-27%	0%	6.1%
CCc1ccc(NC(=O)CN(C(=O)N2CCN(CC)CC2)S(=O)(=O)c2ccc(C)cc2)cc1	7%	/	-4%	/	4%	-23%	15%	/
O=c1c(/C=N/O)coc2ccc3ccccc3c12	?	-226%	?	-14%	-10%	3%	15%	-2.2%
CNS(=O)(=O)c1ccc2c3c(cccc13)C(=O)N2C	/	-30%	11%	/	-6%	0%	/	/
Cc1ccc(COC(=O)CCc2nc3ccccc3c(=O)[nH]2)cc1	4%	-16%	16%	-11%	10%	-20%	-17%	-3.8%
COc1ccc(CCNC(=O)CN(CCc2ccccc2)S(C)(=O)=O)cc1	-28%[46.1 µM]	-5%	9%	/	0%	-7%	3%	/

# Looked up one by one from above:
SMILES	MARV entry inh	NS1 inh	RE007 growth inh	Cruzain noTriton	SARS PLpro yeast	2A StopGo	Lassa entry inh	Cruzain inh Det
Cc1ccc(COC(=O)CCc2nc3ccccc3c(=O)[nH]2)cc1	4%	-16%	16%	-11%	10%	-20%	-17%	-3.8%
CNS(=O)(=O)c1ccc2c3c(cccc13)C(=O)N2C	/	-30%	11%	/	-6%	0%	/	/
